Rango complex inh: Rango-importin beta binding inhibition; Q14974; Potency, µM (series often up to 92.2 µM), inactives show top-dose inhibition of complex formation; Rango CFP/YFP FRET sensor + importin beta, 45 min; hit rate 0.031% among 340,000; active = rising FRET ratio curve, often small or poorly fitted; inconclusive = mostly compound fluorescence or quenching in the first reads; inactive = flat curves in all reads;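 note: potency is the fitted concentration of half-maximal effect; 0% = DMSO wells and 100% = buffer wells lacking importin beta; nearly all actives have a fitted effect of over 15% in size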
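Inhibition scored from the CFP 486 nm/YFP 530 nm FRET ratio 45 min after adding 0.125 microM importin beta to 50 nM Rango biosensor preincubated 5 min with compound (room temperature, PBS with DTT, Tween-20, BSA). No-importin wells as positive control.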
Rango release inh: inhibition of RanGTP-driven Rango-importin beta dissociation; O95149+P62826; Biochemical FRET Rango-importin beta, RanGTP-induced dissociation; Potency, µM (series often up to 46.1 µM), for inactives: at the top dose activity change, negative = inhibition; hit rate 0.071% among 340,000; AID 540253; active means falling FRET ratio curve, often poorly fitted, with flat reads before Ran was added; inconclusive means other falling curves, or compound fluorescence or quenching; inactive means flat or rising ratio curve;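 note: potency is the fitted concentration of half-maximal effect; % of control where 0% means no effect; nearly all actives have a fitted effect of over 45% in size; -100% = wells without RanGTP and RCC1; the record marks most hits as doubtful in a second field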
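Rango FRET biosensor (snurportin-1 IBB flanked by N-terminal EYFP and C-terminal CFP10) at 0.1 uM, with 0.25 uM importin beta in PBS, 1mM DTT, 0.02% Tween-20, 0.1% BSA. 0.6 uM Ran, 2mM GTP and 0.2 uM RCC1 were then added for 45 min at room temperature. Inhibition read as loss of FRET rise.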
GLA inh pH 4.5: blocks human alpha-galactosidase A at pH 4.5 | P06280 | purified enzyme, 4-MU-alpha-Gal fluorescence, pH 4.5 | activity change, negative = inhibition, % at 105 µM | 230,000 tested, under 10 active; inconclusive = small, poorly fitted or top-dose-only inhibition, or a rising curve; inactive = flat fitted curve, though single readings scatter; no compound was filed as active;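 note: 0% = full activity with enzyme and -100% = basal without enzyme; dose as in the result columns while the protocol names 77 µM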
Target sequence (P06280 whole entry, looked up): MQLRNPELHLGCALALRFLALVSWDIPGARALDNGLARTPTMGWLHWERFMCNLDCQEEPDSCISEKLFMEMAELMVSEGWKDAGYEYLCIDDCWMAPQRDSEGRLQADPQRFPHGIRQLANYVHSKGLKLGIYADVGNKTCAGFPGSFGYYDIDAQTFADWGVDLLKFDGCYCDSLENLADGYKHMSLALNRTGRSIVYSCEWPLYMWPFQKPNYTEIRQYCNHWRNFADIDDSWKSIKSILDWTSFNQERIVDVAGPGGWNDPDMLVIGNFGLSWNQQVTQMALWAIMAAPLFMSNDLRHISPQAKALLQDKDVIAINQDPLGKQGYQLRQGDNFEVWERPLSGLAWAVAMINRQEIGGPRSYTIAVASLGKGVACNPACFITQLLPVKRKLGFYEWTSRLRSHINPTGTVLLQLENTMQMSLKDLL
miR-21 FLuc: raises the signal of a miR-21 reporter; HeLa miR-21 FLuc reporter, luciferase, 48 h; Potency, µM (top dose mostly 38.3 µM), inactives show at the highest dose reporter change, positive = more light; 340,000 tested, under 10 active; AID 2288; active = well fitted rising curve with a large enough effect; inconclusive = small, poorly fitted or top-dose-only effect; inactive = no such curve, though single readings can be large or run the other way;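 note: % of control where 0% means no effect; miR-21 action dims this reporter so a rising signal means less miR-21 action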
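Compounds were titrated across several concentrations (up to approximately 40 uM) and incubated 48 hours with HeLa miR-21-FLuc reporter cells (miR-21 target sequence downstream of FLuc, endogenous miR-21). Readout was firefly luciferase luminescence after lytic detection reagent.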
The depositor's hits bear a star; ? = inconclusive; nt = not tested or not shown; & = joins results of further samples. The list is partial; count on the stated rates, not on these rows.

SMILES	Rango complex inh	Rango release inh	GLA inh pH 4.5	miR-21 FLuc
CCCc1cc(C(=O)N2CCN(S(=O)(=O)c3ccc(OC)c(OC)c3)CC2)cs1	1.6%	11%	-18	-1%
CSc1ccccc1C(=O)NCc1ccc(S(N)(=O)=O)cc1	-0.9%	0%	3	-1%
CC(C)c1ccc(NC(=O)Cn2c(=O)oc3ccccc32)cc1	2.6%	12%	nt	-22%
Cc1ccc(N2CCN(S(=O)(=O)N3CCCCC3)CC2)c(C)c1	3.2%	12%	2	-3%
COc1cc(N2C(=O)c3ccccc3C2=O)c(Cl)cc1C(=O)OCC(=O)N1CCOCC1	-1.1%	6%	-3	3%
Cn1c(=O)[nH]c(=O)c2c1nc(N1CCCCC1)n2CCOc1ccccc1	2.1%	-13%	-2	-17%
COc1ccc(C2=NOC(C(=O)NCc3ccccn3)C2)cc1OC (centres undefined)	0.6%	1%	0	-1%
COc1ccc(CC(=O)N2CCN=C2SCc2ccc([N+](=O)[O-])cc2)cc1	2.7%	3%	-6	-1%
CSc1n[nH]c(=O)n1-c1ccc(Cl)cc1	-0.2%	1%	-3	-5%
O=C(Nc1ccccc1C(=O)N1CCOCC1)C1CCCO1 (centres undefined)	5.1%	7%	2	-1%

Some of these compounds in order of number of heavy atoms, ascending:
SMILES	Rango complex inh	Rango release inh	GLA inh pH 4.5	miR-21 FLuc
CSc1n[nH]c(=O)n1-c1ccc(Cl)cc1	-0.2%	1%	-3	-5%
CSc1ccccc1C(=O)NCc1ccc(S(N)(=O)=O)cc1	-0.9%	0%	3	-1%
Cc1ccc(N2CCN(S(=O)(=O)N3CCCCC3)CC2)c(C)c1	3.2%	12%	2	-3%
COc1ccc(C2=NOC(C(=O)NCc3ccccn3)C2)cc1OC (centres undefined)	0.6%	1%	0	-1%
COc1ccc(CC(=O)N2CCN=C2SCc2ccc([N+](=O)[O-])cc2)cc1	2.7%	3%	-6	-1%
CCCc1cc(C(=O)N2CCN(S(=O)(=O)c3ccc(OC)c(OC)c3)CC2)cs1	1.6%	11%	-18	-1%
COc1cc(N2C(=O)c3ccccc3C2=O)c(Cl)cc1C(=O)OCC(=O)N1CCOCC1	-1.1%	6%	-3	3%

Given field by field: 2 of the compounds above
O=C(Nc1ccccc1C(=O)N1CCOCC1)C1CCCO1 (centres undefined)
  Rango complex inh = 5.1% | Rango release inh = 7% | GLA inh pH 4.5 = 2 | miR-21 FLuc = -1%
COc1cc(N2C(=O)c3ccccc3C2=O)c(Cl)cc1C(=O)OCC(=O)N1CCOCC1
  Rango complex inh = -1.1% | Rango release inh = 6% | GLA inh pH 4.5 = -3 | miR-21 FLuc = 3%

Remaining list, next part
SMILES	Rango complex inh	Rango release inh	GLA inh pH 4.5	miR-21 FLuc
COc1cc([N+](=O)[O-])ccc1NC(=O)Cc1ccccc1	-0.5%	0%	1	0%
COc1ccc(-c2nn(CC(=O)N(C)C)c(=O)c3ccccc23)cc1	3.0%	-5%	-1	-30%
CCOC(=O)c1ccc(Oc2nc(NC)nc(Nc3ccccc3)n2)cc1	-2.7%	8%	5	0%
COc1cc(-c2n[nH]c(=S)n2-c2ccc(Br)cc2)cc(OC)c1OC	-1.0%	-11%	nt	-9%
O=C(NNc1ccccc1)C(=O)N1CCCCC1	?	1%	-4	-1%
CCOC(=O)c1ccc(OCc2nc(-c3cccs3)no2)cc1	0.5%	1%	-2	-26%
COc1ccc(CCNC(=O)COC(=O)CNS(=O)(=O)c2ccc(SC)c([N+](=O)[O-])c2)cc1	-1.1%	6%	nt	nt
CN(C)CCOC(=O)/C(=C/c1cn(C)c2ccccc12)NC(=O)c1ccccc1	?	-21%	-16	4%
COc1ccc(N2CCN(C(=O)COC(=O)CSc3ccccc3)CC2)cc1	-1.6%	-1%	nt	nt
NS(=O)(=O)c1ccc(CCNC(=O)c2cc(-c3ccc(Br)cc3)nc3ccccc23)cc1	1.0%	-6%	-7	10%

Single values from the results shown.
COc1cc([N+](=O)[O-])ccc1NC(=O)Cc1ccccc1 in Rango complex inh is entered as -0.5%
NS(=O)(=O)c1ccc(CCNC(=O)c2cc(-c3ccc(Br)cc3)nc3ccccc23)cc1 in Rango complex inh is entered as 1.0%
COc1ccc(-c2nn(CC(=O)N(C)C)c(=O)c3ccccc23)cc1 in Rango complex inh is entered as 3.0%

Next section
SMILES	Rango complex inh	Rango release inh	GLA inh pH 4.5	miR-21 FLuc
N/C(=N\OC(=O)c1ccc(Cl)cc1)c1ccccn1	-1.0%	2%	-3	24%
O=S(=O)(CCS(=O)(=O)c1ccccc1)c1ccccc1	-3.2%	-4%	nt	nt
COc1ccc(S(N)(=O)=O)cc1C(=O)OCC(=O)N1CCCC(C)C1 (centres undefined)	-1.6%	-8%	nt	nt
CC(=O)Nc1ccc2nc(CN3CCN(Cc4ccc(F)cc4)C(CCO)C3)ccc2c1 (centres undefined)	-1.2%	-16%	4	0%
O=C(NC1CCSc2ccccc21)c1ccc(F)cc1 (centres undefined)	-1.0%	-2%	nt	-9%
CN(C(=O)c1ccc(Cl)cc1)c1ccc(OCC(=O)Nc2cc(C(=O)O)ccc2Cl)cc1	-2.2%	-7%	nt	nt
CCOC(=O)N1CCN(CC(O)c2ccccc2)CC1 (centres undefined)	-0.9%	-17%	-2	-4%
CCOC(=O)N1CCN(S(=O)(=O)c2ccc(C(=O)Nc3nc4c(s3)CC(C)CC4)cc2)CC1 (centres undefined)	-1.2%	6%	4	-2%
CCc1cc(C)cc(OCCOc2ccccc2/C=N/NC(C)=O)c1	6.2%	4%	nt	14%
CC1(C)CC(=O)C2=C(C1)N(Cc1ccc(F)cc1)C(=O)C2(NC(=O)c1cccnc1)C(F)(F)F (centres undefined)	-0.8%	6%	10	-4%
CCN(CC)CCOc1ccc(C=NNc2nc3c([nH]2)c(=O)n(C)c(=O)n3C)cc1	0.4%	-11%	nt	nt
CC1(c2ccccc2Cl)NC(=O)N(CC(=O)Nc2ccccc2OC(F)F)C1=O (centres undefined)	-0.4%	-4%	nt	-3%
c1csc(C2CCCN2c2nc3nonc3nc2NC2CC2)n1 (centres undefined)	?	?	-15	-5%
CCc1c(O)nc(SCC(=O)Nc2ccccc2C)n(-c2ccc(C)cc2)c1=O	5.1%	1%	nt	9%
O=C(COc1ccc(C2SCCS2)cc1)Nc1ccc(Cl)cc1	-3.5%	-9%	2	2%
CC(C)c1ccc(S(=O)(=O)N2CCC(C(=O)NCc3ccco3)CC2)cc1	0.8%	9%	nt	nt
Cc1c(OCC(=O)N2C[C@H]3C[C@@H](C2)c2cccc(=O)n2C3)ccc2c3c(c(=O)oc12)CCCC3	0.9%	-1%	nt	-4%
Cc1ccc(S(=O)(=O)N2CCc3ccccc3C2)cc1	4.7%	-17%	nt	-1%
Cc1cc(C)cc(N(CC(=O)NCc2ccccc2Cl)S(=O)(=O)c2c(C)[nH]c(=O)[nH]c2=O)c1	-4.4%	-3%	nt	-4%&-8%
Cc1c(NC2=NC(C)(C)Cc3ccccc32)c(=O)n(-c2ccccc2)n1C	-4.6%	-11%	-7	-4%
O=C(CSc1nc(O)cc(=O)n1-c1ccccc1)Nc1ccc2c3c(cccc13)CC2	3.1%	-1%	-13	-2%
COc1ccccc1OCCNC(=O)c1cccs1	-0.3%	-6%	-4	-32%
COc1ccc(CN(C)C(=O)c2ccc(OCC(=O)N3CCOCC3)c(OC)c2)cc1	0.1%	0%	nt	nt
c1nc(NCc2ccc3c(c2)OCO3)c2cc(-c3ccoc3)ccc2n1	-1.9%	-13%	nt	nt
Nc1ncnc(N)c1N=Nc1ccccc1	3.8%	3%	nt	19%
CC1CCCN(C2=C(NS(=O)(=O)c3ccc(Cl)cc3)C(=O)c3ccccc3C2=O)C1 (centres undefined)	0.7%	-3%	2	-26%
CC1CCN(C(c2cc3cc4c(cc3[nH]c2=O)OCO4)c2nnnn2CC2CCCO2)CC1 (centres undefined)	?	2%	3	-2%
O=C(COc1ccc(Cl)cc1)Nc1ccc2c(c1)C(=O)NC2=O	-1.4%	-9%	nt	-2%
CC1CCN(c2ccc(NC(=O)c3cccnc3)cc2)CC1	2.1%	1%	-6	-26%

Screening data as filed in PubChem.
